# Source: PubChem (several laboratories)
# Thrombin inh = blocks human thrombin protease activity. P00734. alpha-thrombin, Boc-VPR-AMC fluorogenic substrate cleavage. inhibition, % at 5 µM. hit rate 0.26% among 220,000. AID 1046;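 active means inhibition at or above 40%; inactive means inhibition below 40%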;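 further: 0% = enzyme with no compound and 100% = wells without enzyme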
#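 Assay system: human alpha-thrombin enzyme. Reagent: Boc-VPR-AMC substrate, 15 µM final. Compound dosing: one concentration per compound, 5 µM, with 0.2% DMSO. Incubation: room-temperature reaction. Technique: AMC fluorescence, 355/460 nm. Measure: % inhibition relative to enzyme controls and enzyme-free blanks.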
# Cl transport mod = modulates chloride dependent transport by human KCC2; AID 1456; KCC2 cells, thallium flux FluoZin-2 fluorescence; hit rate 2.2% among 190,000; B-score of Tl+ flux slope (higher = more flux/activation; lower = inhibition) at 10 µM; Q9H2X9;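 active means thallium flux slope and its plate-corrected score both differing from the plate sample mean at a set confidence after two filtering rounds, in either direction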;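 further: slope of fluorescence scaled to starting intensity during 10 to 20 s after thallium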
# PERK inh = inhibitors of human PERK kinase. Q9NZJ5. CHO PERK-DD fusion, SEAP luminescence translation reporter. inhibition, % at 5.6 µM. hit rate 0.17% among 220,000. AID 1416;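 active means inhibition above the mean inhibition of all tested compounds plus 3 SD, set separately per screening campaign, cut at about 2.9% in these data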;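 further: PERK kinase domain activated by AP20187 dimerizer at 100 nM; 0% = DMSO with dimerizer and 100% = rapamycin at 8.4 µM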
# p97 inhibitor = human p97 ATPase inhibition. recombinant p97 ATPase, Kinase-Glo ATP luminescence, 3 h. P55072. hit rate 0.42% among 220,000. AID 1481. inhibition, % at 8 µM; in the data active means inhibition above about 15%;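 further: 0% = DMSO vehicle and 100% = wells lacking enzyme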
# Target sequence (P55072 whole entry, looked up): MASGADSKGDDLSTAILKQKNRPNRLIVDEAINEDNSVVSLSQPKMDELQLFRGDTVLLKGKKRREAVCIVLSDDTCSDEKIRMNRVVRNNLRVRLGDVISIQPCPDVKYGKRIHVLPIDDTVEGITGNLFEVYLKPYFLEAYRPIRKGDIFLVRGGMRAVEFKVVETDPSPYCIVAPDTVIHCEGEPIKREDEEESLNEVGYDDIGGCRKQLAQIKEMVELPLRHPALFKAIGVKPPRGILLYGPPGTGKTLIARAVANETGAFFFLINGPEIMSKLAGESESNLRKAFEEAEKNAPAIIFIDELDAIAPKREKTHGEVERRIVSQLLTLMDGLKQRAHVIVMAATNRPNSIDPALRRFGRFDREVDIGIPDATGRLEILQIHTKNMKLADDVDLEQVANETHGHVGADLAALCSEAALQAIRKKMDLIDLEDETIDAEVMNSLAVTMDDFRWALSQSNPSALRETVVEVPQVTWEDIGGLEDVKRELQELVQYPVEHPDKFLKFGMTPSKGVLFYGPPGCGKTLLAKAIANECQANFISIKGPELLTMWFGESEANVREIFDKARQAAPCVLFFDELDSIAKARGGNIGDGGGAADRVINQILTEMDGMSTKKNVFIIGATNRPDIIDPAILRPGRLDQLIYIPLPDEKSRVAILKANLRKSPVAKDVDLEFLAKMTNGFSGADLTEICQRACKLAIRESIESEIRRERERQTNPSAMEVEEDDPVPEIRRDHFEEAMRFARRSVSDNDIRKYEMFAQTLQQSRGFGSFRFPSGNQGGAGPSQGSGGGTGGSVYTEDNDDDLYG
# KLK5 inh = blocks human kallikrein 5 protease activity | inhibition, % at 5 µM | AID 873 | hit rate 0.59% among 210,000 | recombinant hK5, fluorogenic AMC substrate cleavage | Q9Y337;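 active means inhibition of 40% or more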;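 further: 0% = enzyme controls without compound and 100% = no-enzyme blanks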
# Target sequence (Q9Y337 67-293 limits assumed): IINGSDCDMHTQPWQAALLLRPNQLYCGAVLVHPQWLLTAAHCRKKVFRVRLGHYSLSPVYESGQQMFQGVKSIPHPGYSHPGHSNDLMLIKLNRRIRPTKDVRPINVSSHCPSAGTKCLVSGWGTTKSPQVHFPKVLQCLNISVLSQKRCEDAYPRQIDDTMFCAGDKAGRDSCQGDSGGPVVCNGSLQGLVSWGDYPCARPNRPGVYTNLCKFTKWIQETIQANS
# Furin inh = blocks human furin protease activity. P09958. purified furin, fluorogenic substrate cleavage. inhibition, % at 30 µM. hit rate 0.061% among 220,000. AID 463115; in the data active means inhibition above about 25%; further: inactives centre near -15
# Wee1 degr inh = human Wee1 degradation inhibition, primary screen | reporter increase, % at 5 µM | HeLa Luc-Wee1K328M stability, luciferase luminescence; 100% = proteasome inhibitor MG132 effect | hit rate 1.2% among 220,000;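 active means activation above the mean of all tested compounds plus 3 SD, set per screening run, cut at about 8.8% in these data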;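 further: cells exposed to compound for 20 h before luminescence read; 0% = DMSO alone and 100% = MG132 at 30 µM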
# Starred values were filed as active, the others as inactive; nt = no result given; [ ] = another dose, or the depositor's remark. Some of the compounds tested; rates above refer to the full screens.
SMILES,Thrombin inh,Cl transport mod,PERK inh,p97 inhibitor,KLK5 inh,Furin inh,Wee1 degr inh
CCC(=O)c1ccccc1OCCN1CCN(Cc2ccccc2)CC1,-4,-1,1.4,4,-3,-5,3
Cc1cc(C)n(C(=O)c2ccncc2)n1,-23,0.36,0.8,2,2,-44,1
CC(=O)NS(=O)(=O)c1cccnc1Nc1ccc(Cl)c(Cl)c1,-8,0.28,0.1,-3,-16,4[20 µM],-3
O=C(NCC1CCCO1)C1c2ccccc2Oc2ccccc21 (stereo not drawn),-9,0.17,0.0,-1,-4,-22,-1
COCCNC(=O)c1onc(CCl)c1C(=O)OC,2,0.56,0.3,-1,1,-12[20 µM],1
CCOCCCn1c(=S)[nH]c2cc(C(=O)NCCOC)ccc2c1=O,3,0.48,-0.5,-5,-9,-19,-2
Cn1cnnc1SCc1ccc(C(=O)N/N=C/c2cccs2)cc1,2,1.4,1.0,5,0,-1,-1
Cc1nc2cc(F)ccc2n1C1CCN(C(=O)c2c(F)cccc2F)CC1,-12,0.36,-0.1,3,-9,-30,-2
C/C(=N\NC(=O)c1ccc(NS(=O)(=O)c2cccs2)cc1)c1ccc(C(C)(C)C)cc1,-14,-0.16,0.0,7,-7,-6,-2
C=CCn1c(SCC(=O)Nc2cccnc2Cl)nnc1-c1ccccc1F,-7,nt,-1.1,1,-15,-28,0
C/C(=N/NC(=O)c1cccs1)c1ccc(NC(=O)COc2ccc(Cl)cc2)cc1,1,0.26,0.3,2,-4,-10[20 µM],6
O=C1CN(C(=O)CNCc2cccc(Cl)c2)c2ccccc2N1,-2,-0.064,2.6,6,-7,-7,2
COc1ccc(-c2cc(CNC(=O)CN3CCN(C)CC3)on2)cc1,-7,-0.0014,0.8,6,-3,0[20 µM],-2
COc1ccc(S(=O)(=O)N(CCCN2CCOCC2)Cc2cccc(OC)c2OC)cc1,-1,0.23,-1.0,-1,-3,-20[20 µM],4
COc1cc2c(cc1OC)C1(CCCC1)CNC2C (stereo not drawn),3,-0.98,-1.3,0,-5,-20[20 µM],-2
COc1ccc(CCNC(=O)CSc2nc3[nH]ncc3c(=O)n2-c2ccc(C)c(Cl)c2)cc1OC,4,0.57,0.4,-5,6,-7,-1
Cc1cc2c(=O)oc(-c3ccc(F)cc3)nc2s1,1,-0.49,0.9,3,8,-32,-2
CC(=O)c1cc(C)ccc1OC(=O)CCN1C(=O)C2C3c4ccccc4C(c4ccccc43)C2C1=O (stereo not drawn),-5,0.041,0.4,2,2,-11[20 µM],-2
FC(F)(F)c1cc(-c2cccs2)nc2cc(-c3cccs3)nn12,3,-0.01,0.2,-4,3,-12,3
O=C(CNS(=O)(=O)c1ccccc1)OCC(=O)c1cccc([N+](=O)[O-])c1,3,0.41,0.6,6,-16,-4,-1
O=C(CN1C(=O)C2CC=CCC2C1=O)Nc1ccc(S(=O)(=O)NC2=NCCCCC2)cc1 (stereo not drawn),2,0.31,1.0,-2,-15,-6,-4
O=C(NCCCN1CCOCC1)c1ccc(NC(=O)C2COc3ccccc3O2)cc1 (stereo not drawn),-1,0.7,-0.5,4,19,-25,1
O=C(/C=C/c1ccccc1)NC(=S)Nc1ccc2c3c(cccc13)CC2,4,-0.52,0.8,7,5,-7,-1
CCOC(=O)c1c(CC(C)C)csc1NC(=O)c1ccccc1C(=O)O,-2,-2.6,0.5,18*,2,-5,-1
CCOC(=O)c1cc(C#N)c(Oc2cccc(C(F)(F)F)c2)nc1-c1ccccc1,0,nt,-1.0,-6,-1,10[20 µM],-2
CN1CCc2c(sc3c2c(=O)n(-c2ccc(Cl)cc2)c2nncn32)C1,-4,0.56,0.9,-1,-1,-23,1
S=c1[nH]nc(COc2ccccc2)n1/N=C/c1cccs1,-11,2.5,0.1,0,8,0,1
COc1ccc(C(=O)NC(=S)Nc2ccc3c4c(cccc24)CC3)cc1OC,-9,-0.0005,0.6,0,-14,-4,2
CCC(=O)Oc1ccc2c(C)cc(=O)oc2c1C(=O)c1ccccc1,27,-1.1,1.0,3,-9,-17,-3
CCOc1ccc(/C=N/n2c(C)nnc2C)cc1OC,1,0.32,0.0,3,-3,-11,-3
COCCn1c(=N)c(C(=O)NCc2ccco2)cc2c(=O)n3ccccc3nc21,1,-0.84,0.5,6,-29,-22,4
CCC(C)NC(=O)c1ccccc1NC(=O)/C(=C/c1ccc(OC)cc1)c1ccccc1 (stereo not drawn),-2,-0.79,-0.7,0,-13,-19,2
COc1ccc(OCC(=O)Nc2ccccc2Cl)cc1,6,-1.6,0.2,-3,-3,-19,-1
NC(=O)C(c1ccc(Cl)cc1)c1ccc(Sc2ccc(Cl)cc2)nn1 (stereo not drawn),0,0.66,-1.4,-1,-4,-9[20 µM],1
CN1Cc2sc(NC(=S)NC(=O)c3ccccc3)c(C#N)c2CC1(C)C,-4,-0.25,-0.3,1,-1,-12,-2
Cc1nc2scc(-c3cccs3)c2c(=O)o1,4,-0.44,1.2,8,23,-6,-1
C=CCSc1nc(C)c(Cc2cccc3ccccc23)c(=O)[nH]1,-3,-0.02,0.8,-3,0,-33,3
CCOC(=O)c1cc(C#N)c(Oc2ccccc2)nc1-c1ccccc1,2,nt,-1.0,-10,-1,-1[20 µM],-3
CC1(C)CC(/C=C/c2ccccc2)=Nc2ccccc2N1,0,-0.19,-0.4,8,34,11,1
CCOC(=O)c1cc(C#N)c(N2CCNCC2)nc1C(F)(F)F,0,0.028,-0.1,1,24,1,-1
CCCCC(=O)OCC(=O)c1[nH]c(C)c(C(C)=O)c1C,0,-1.3,0.4,1,20,-9,6
CC(C)=CCCC(C)CN1CCC(N2CCC(C(=O)NC(C)C)CC2)CC1 (stereo not drawn),-1,nt,0.6,-2,nt,-16,3
O=C(O)CN1C(=O)SC(Nc2ccc(Cl)cc2)C1=O (stereo not drawn),-3,-0.031,-0.3,-6,-1,-12[20 µM],-3
COCCN1C(=O)C(=O)/C(=C(/O)c2ccc3c(c2)OCCO3)C1c1ccc(C(=O)OC)cc1 (stereo not drawn),-5,nt,1.4,-3,2,4,-1
CC(/C=C/c1cccc([N+](=O)[O-])c1)=N\NC(=O)c1ccncc1,-5,0.81,1.1,1,-16,-11,1
CCC(=O)Oc1ccc2c(C)cc(=O)oc2c1C(=O)CC,19,-0.57,0.9,7,-5,1,-2
CCCOc1ccc(N/C=C/C(=O)C(C)(C)C)cc1,-6,0.053,0.2,3,-11,-14,-2
COc1ccc(/C=C/C(=O)Oc2cc(C)[nH]c(=O)c2[N+](=O)[O-])cc1OC,-2,0.00044,0.4,1,6,-3,0
CC(c1ccccc1)C1CC(=O)N(C2CCCCC2)C1=O (stereo not drawn),-15,-0.61,1.7,2,-20,-12[20 µM],1
CCN1CCC2(CC1)N=C(c1ccc(F)cc1)C(=S)N2,18,0.0036,0.1,-1,2,-15,3

# New compounds follow.
SMILES,Thrombin inh,Cl transport mod,PERK inh,p97 inhibitor,KLK5 inh,Furin inh,Wee1 degr inh
Cc1ccc(CC2CC(=O)N(c3nc4ccccc4s3)C2=O)cc1 (stereo not drawn),-1,-1.9,0.2,4,-1,-24,-2
Cc1nn(C(=O)c2ccccc2)c2c1C(=O)CC(C)(C)C2,20,-0.023,1.2,3,20,-20[20 µM],2
COc1ccccc1CCNC(=O)CSc1nc(-c2ccco2)cc(C(F)(F)F)n1,0,nt,0.7,-4,7,-32,1
CCCCNc1nc(-c2ccccc2)c(C(=O)OCC)cc1C#N,1,0.16,-0.5,-4,2,-15[20 µM],0
CCOC(=O)c1cccc(NC(=O)N2CCOCC2)c1,3,-0.63,0.5,1,-3,-19,-2
COc1ccc(OC)c(-c2cc(C(F)(F)F)c3c(n2)sc2c(O)cc(=O)[nH]c23)c1,0,-1.8,1.7,6,-3,-12,-1
CCCCNC(=O)c1onc(CCl)c1C(=O)OC,1,1.9,0.0,0,4,-14[20 µM],-1
Cc1no[n+]([O-])c1COc1ccc(/C=N/n2nnnc2N)cc1,-1,-0.19,0.3,5,-13,-15,0
CCC(=O)N1C(C(=O)N2CCCC2)CSC1c1ccc(OC)cc1 (stereo not drawn),-2,0.18,-0.2,-5,-10,-5,1
O=C1C2C3C=CC(C3)C2C(=O)N1c1cccc(-c2nc3ccccc3o2)c1 (stereo not drawn),-10,nt,1.9,1,-24,-24,-2

# 3 of these compounds in a different format:
COc1ccccc1CCNC(=O)CSc1nc(-c2ccco2)cc(C(F)(F)F)n1
  Thrombin inh: 0	Cl transport mod: nt	PERK inh: 0.7	p97 inhibitor: -4	KLK5 inh: 7	Furin inh: -32	Wee1 degr inh: 1

CCCCNC(=O)c1onc(CCl)c1C(=O)OC
  Thrombin inh: 1	Cl transport mod: 1.9	PERK inh: 0.0	p97 inhibitor: 0	KLK5 inh: 4	Furin inh: -14[20 µM]	Wee1 degr inh: -1

COc1ccc(OC)c(-c2cc(C(F)(F)F)c3c(n2)sc2c(O)cc(=O)[nH]c23)c1
  Thrombin inh: 0	Cl transport mod: -1.8	PERK inh: 1.7	p97 inhibitor: 6	KLK5 inh: -3	Furin inh: -12	Wee1 degr inh: -1

# Going on with the list:
SMILES,Thrombin inh,Cl transport mod,PERK inh,p97 inhibitor,KLK5 inh,Furin inh,Wee1 degr inh
Cc1ccc(/C=C2/C(=O)N(c3ccccc3)C(=S)N2C)o1,-8,0.028,-0.3,1,-11,-3,-2
COc1ccccc1CC(=O)Nc1ccc(-c2noc(COc3ccc(Cl)c(C)c3)n2)cc1,-20,0.23,0.1,3,-5,-9[20 µM],3
CCN(CC)S(=O)(=O)c1cc(C(=O)Oc2cccc(-c3cnc4ccccc4n3)c2)ccc1Br,-7,0.66,1.5,1,-11,1[20 µM],1
COc1ccc(/C=C/C(=O)NC(=S)N2CCN(c3ccccn3)CC2)cc1,-1,5.9*,-1.6,0,1,-12,-1
CC(=O)N(CCC(c1ccco1)C(C)C)Cc1ccc(OC(C)C)cc1 (stereo not drawn),-13,-2.4,0.6,-9,-11,-17,1
CCc1ccc(NC(=O)CN2C(=O)CSC2=O)cc1,-1,0.031,0.8,1,1,-13[20 µM],3
COc1cccc(N/C(SCc2cccc([N+](=O)[O-])c2)=C(/C#N)C(=O)NCc2cccs2)c1,-5,-1.5,-1.2,-1,-13,-8,-4
CCOC(=O)N1CCN(C(=S)NC2CCCC2)CC1,-1,-0.89,0.5,2,nt,-23,2
COc1cc(C)c(NC(=S)Nc2cccc(Cl)c2)cc1OC,-3,0.95,-0.2,8,9,-17,-1
CCCNC(=O)c1cc2nc(-c3ccccc3)cc(C(F)(F)F)n2n1,2,1.2,-0.2,-5,-20,-23[20 µM],-1
Cc1nnc(SCC(=O)Nc2cccc(S(=O)(=O)NC3=NCCCCC3)c2)n1Cc1ccccc1,26,-0.95,0.1,-4,11,-18,-1
O=[N+]([O-])c1ccc(Cl)c(/C=N/n2c(COc3ccccc3)n[nH]c2=S)c1,-1,4.8,-0.2,-2,-10,-19,-1
COCCCNC(=S)NCCNc1nc2cc(C)c(C)cc2cc1C#N,0,-0.52,0.5,2,-18,-30,-1
NS(=O)(=O)c1ccc(NC(=O)CSc2nnc(COc3ccccc3Cl)n2C2CC2)cc1,-7,-0.74,0.7,2,-26,-10[20 µM],8
S=c1[nH]nc(COc2ccccc2)n1/N=C/c1ccc(Br)s1,3,51*,-0.6,-5,7,-6,3
Cc1ccc(OCc2nnc(SCC(=O)Nc3ccc4c(c3)OCO4)n2C)cc1,-6,-1.3,-0.2,-8,-25,-17[20 µM],2
COc1cccc(OC)c1C(=O)Nc1cccnc1,-1,-0.46,0.2,1,-2,-28,-2
O=C1OC(c2ccc(Br)cc2)=N/C1=C\N1CCCCC1,-7,1.4,-0.4,1,-9,-15[20 µM],6
CC(=O)Nc1ccc(-c2nnc(SCC(=O)NCc3ccco3)n2C)cc1,9,nt,0.8,-1,-3,-13[20 µM],-1
Cc1cccc2cc(CN(Cc3ccco3)C(=O)c3ccncc3)c(=O)[nH]c12,-7,0.83,-0.8,3,-28,-15[20 µM],1
CC(C)(C)c1cc(N)n2nc(C(C)(C)C)cc2n1,-2,1,2.0,5,-4,-20,2
O=C(CSc1nc(O)cc(=O)[nH]1)C1CC1,4,0.24,1.2,5,3,-28,0
O=c1c2ccccc2nc(-c2ccccc2)n1Cc1ccco1,-1,-0.2,0.4,2,2,-39,-3
